Six1-Eya2 inh – inhibitors of human Six1/Eya2 interaction | AID 651725 | activity change, % (no concentration beside the values) | 0.56% of 360,000 active | AlphaScreen GST-Six1/His-Eya2 binding, biochemical; stronger effect = lower value; control for the full effect not named in the record | Q15475+O00167; in the data active = activity change below about -65%; inconclusive = about -30% to -65%; inactive = above about -30%; note: % is set by controls: 0 for no effect and ±100 for the full control effect; compound concentration not given in the record
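Homogeneous AlphaScreen proximity assay pairing GST-Six1 with His-tagged Eya2 (added as 5X mix: 250 nM and 500 nM) in 50 mM Tris pH 8.0, 300 mM NaCl, 1 mM TCEP. Glutathione donor and nickel acceptor beads; 1 h, 37 °C, dark.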
Sfp PPTase inh – Sfp phosphopantetheinyl transferase inhibition | Q9F4F7 | Biochemical Sfp PPTase activity, qHTS | Potency, µM, without a hit: max response, negative = inhibition, usual class: inhibitors | 3.5% of 310,000 active | AID 1490; active = well fitted inhibition curve with a large enough effect; inconclusive = small, poorly fitted or top-dose-only effect, or another doubt; inactive = no such curve, though single readings can be large or run the other way;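 note: the enzyme is Sfp with the accession as filed and its product quenches rhodamine fluorescence; potency is the fitted concentration of half-maximal effect; 0% = enzyme reaction without inhibitor and -100% = no enzyme wells; top concentration of the series not given in the record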
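Sfp 15 nM + cpd, 15 min RT; start w/ rhodamine-CoA 5 uM, BHQ-2-YbbR 12.5 uM (final); 50 mM Hepes pH 7.6, 10 mM MgCl2, 0.01% NP-40, 0.01% BSA; read 525/598 nm at 0 and 30 min.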
CtBP-E1A inh – CtBP/E1A binding inhibition; AlphaScreen GST-E1A/His-CtBP binding, 1536-well; stronger effect = lower value; control for the full effect not named in the record; activity change, % (no concentration beside the values); 0.49% of 340,000 active; AID 651724; in the data active means activity change below about -65%; inconclusive means about -30% to -65%; inactive means above about -30%; note: % is set by controls: 0 for no effect and ±100 for the full control effect; compound concentration not given in the record
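In 5 uL wells, 23 nL compound meets equimolar GST-E1A and His-CtBP (5X stock 125 nM each) for 2 h, 37 °C. Beads (5X, 50 ug/mL) then 1 h, 37 °C, dark.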
D2 PAM – positive allosteric modulators of human D2 dopamine receptor | AID 624464 | potentiation, % (no concentration beside the values) | DiscoveRx D2 beta-arrestin cells, luminescence, 90 min; 100% = 57 uM dopamine signal | P14416 | 0.23% of 360,000 active; active = potentiation of 50% or more; inconclusive = 30% to 50%; inactive = 30% or less;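 note: compound concentration not given in the record; tested on top of an EC20 dose of dopamine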
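PathHunter D2 cells, attached overnight at 37 deg C, received compound in DMSO plus dopamine at EC20 (50 nM final) for 90 min at 37 deg C. Beta-arrestin recruitment was read as luminescence after 1 h with detection reagent at ambient temperature.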
PINK1 expr mod – changes PINK1 expression; Potency, µM (highest dose often 76.6 µM), for inactives: at the highest dose activation (PINK1 increase), hits mostly activators; 0.2% of 410,000 active; PINK1 immunofluorescence, high-content cytometry, 24 h; active = well fitted activation curve with a large enough effect; inconclusive = small, poorly fitted or top-dose-only effect; inactive = flat fitted curve, though single readings scatter; cell line not stated here;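 note: potency is the fitted concentration of half-maximal effect; % of control where 0% means no effect; nearly all actives have a fitted effect of over 65% in size; a mitochondrial uncoupler was the plate control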
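Measures PINK1 amount and localization on or inside mitochondria by immunofluorescence. Stable cells get compounds at 5 concentrations for 24 hours before fixation and staining; CCCP controls included.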
D2 agonist – human D2 receptor agonism in beta-arrestin assay; activation, % (test concentration not listed); 0.084% of 360,000 active; DiscoveRx PathHunter D2 beta-arrestin, luminescence, 90 min; 100% = 57 uM dopamine signal; P14416; in the data active = activation above about 40%; inconclusive = about 15% to 40%; inactive = below about 15%; note: compound concentration not given in the record; the text of the record calls up to 30% inactive
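Agonist mode: compounds alone added to overnight-plated D2 PathHunter cells for 90 min at 37 C, with 57 uM final dopamine (EC100) defining full response. Beta-arrestin recruitment detected by chemiluminescent reagent, read after 1 h at ambient temperature.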
TRPV1 PAM – human TRPV1 potentiation. TRPV1-expressing cells, Fluo-8 calcium influx, capsaicin EC20 potentiation; host cell line not named in the record; control for the full effect not named in the record. potentiation, % at 8.33 µM. 0.02% of 320,000 active. AID 540277; active means potentiation above 80%; inconclusive means 30% to 80%; inactive means below 30%; note: 0% is about no effect
Target sequence (Q8NER1 whole entry, looked up): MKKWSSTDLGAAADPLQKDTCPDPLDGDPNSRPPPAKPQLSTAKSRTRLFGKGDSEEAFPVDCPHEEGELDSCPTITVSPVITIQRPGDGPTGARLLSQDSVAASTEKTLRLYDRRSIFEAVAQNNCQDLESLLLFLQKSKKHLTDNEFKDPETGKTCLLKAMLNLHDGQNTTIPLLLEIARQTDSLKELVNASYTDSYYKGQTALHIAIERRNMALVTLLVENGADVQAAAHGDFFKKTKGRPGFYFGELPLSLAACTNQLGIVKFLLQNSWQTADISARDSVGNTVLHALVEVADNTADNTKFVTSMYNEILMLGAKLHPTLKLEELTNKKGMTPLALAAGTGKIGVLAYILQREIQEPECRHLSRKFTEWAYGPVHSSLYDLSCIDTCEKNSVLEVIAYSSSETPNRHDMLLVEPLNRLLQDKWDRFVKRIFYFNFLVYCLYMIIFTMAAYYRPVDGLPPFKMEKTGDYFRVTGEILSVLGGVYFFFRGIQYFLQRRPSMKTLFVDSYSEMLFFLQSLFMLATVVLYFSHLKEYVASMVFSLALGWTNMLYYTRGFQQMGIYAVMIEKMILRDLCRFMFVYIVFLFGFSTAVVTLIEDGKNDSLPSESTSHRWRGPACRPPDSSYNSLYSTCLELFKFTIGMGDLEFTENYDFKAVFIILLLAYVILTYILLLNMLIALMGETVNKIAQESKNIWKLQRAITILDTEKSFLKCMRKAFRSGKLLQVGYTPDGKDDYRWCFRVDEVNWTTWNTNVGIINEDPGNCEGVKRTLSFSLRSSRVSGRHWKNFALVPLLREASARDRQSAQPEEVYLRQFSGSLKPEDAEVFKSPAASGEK
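Cells expressing TRPV1 were dye-loaded with Fluo-8 and read kinetically: 10 s baseline, 3 min after compound (agonist portion), then 2 min after EC20 capsaicin (allosteric enhancer portion). Calcium-bound dye fluorescence at 480/520 nm.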
The depositor's hits bear a star; ? = inconclusive; / = not tested or not shown; & = joins results of further samples; [ ] = remark or other dose.

SMILES	Six1-Eya2 inh	Sfp PPTase inh	CtBP-E1A inh	D2 PAM	PINK1 expr mod	D2 agonist	TRPV1 PAM
CC(C)[C@@H](NC(=O)C1CCN(C(=O)[C@@H]2CCCN2C(=O)OC(C)(C)C)CC1)C(=O)NCc1ccc(F)cc1	7	14%	0	-27	-0.3%	-5.8	5
COc1ccccc1NS(=O)(=O)N(C)C	1	7%	1	-4	-0.4%	-6.9	7
O=C(CN1CCc2ccccc2C1)Nc1ccccc1N1CCCCCC1	-5	50µM*	-1	-22	?	-1.4	-7
N#CC(CCc1ccccc1[N+](=O)[O-])(CCc1ccccc1[N+](=O)[O-])C(N)=O	-5	/	4	-11	-1.0%	0.6	/
COc1ccc(S(=O)(=O)N2CCCCC2)cc1NC(=O)c1cnc(C)cn1	0	/	1	-12	2.2%	-3.8	4
O=C(COC(=O)/C=C/c1ccccc1[N+](=O)[O-])Nc1ccc(OCc2ccccc2)cc1	1	3%	2	2	9.6%	0.9	-8
CC1=NN(c2ccc(C)c(C)c2)C(=O)C1C(c1cccc(O)c1)C1C(=O)N(c2ccc(C)c(C)c2)N=C1C (stereo not given)	-21	34%[activator]	-11	-27	7.1%	-7.3	-4
COc1nc(C)ccc1-c1noc(-c2ccncc2)n1	4	13%	8	-8	12%[38.3 µM]	-1.4	2
Cc1ccccc1C(=O)N(C)c1ccccc1C(=O)NCc1ccccc1	-1	4%	4	3	1.8%	-3.4	2
O=C(O)CS(=O)CC(=O)Nc1cccc(C(F)(F)F)c1 (stereo not given)	3	-3%	1	-4	0.8%	-2.1	17
CC1(C(=O)NS(=O)(=O)c2ccc(Cl)cc2)CCN1C(=O)C1CC1 (stereo not given)	4	/	7	-12	-0.5%	-5.3	/
COc1cccc(/C=N/NC(=O)C[n+]2ccccc2)c1OC	23	17%	0	-41	0.1%	-4.7	-7
CCOC(=O)c1c(C)oc2cc(Sc3ccccc3)c(O)c(O)c12	15	/	/	-3	6.9%	1.4	/
CCCCC(=O)N(C)c1c(CC)nc2c(OCCC3CCCCC3)cccn12	-2	/	-5	-13	-1.2%	-1.5	/
Nc1cc(SCc2ccc([N+](=O)[O-])cc2)ncn1	-2	/	-6	-5	5.1%	-0.8	/
CN(C)c1ccc(NC(=S)N2CCN(c3ncc(C(F)(F)F)cc3Cl)CC2)cc1	-10	4%	-8	14	6.6%	-3.6	1
COc1ccc(-c2nnc(SCc3cccc(C)c3)n2N)cc1	1	25%	10	-3	/	1.0	11
N=c1sc2ccccc2n1-c1ccccc1	0	12%	4	-10	3.3%[38.3 µM]	-0.1	-24
COC(=O)c1ccc(Cn2cc(C(F)(F)F)ccc2=O)cc1	-1	23%	-3	-2	-1.2%	-2.0	4
CC(C)=NOc1nc(N(C)C)nc(N(C)C)n1	10	0%	-5	-9	2.1%	-5.2	11
O=C(COC(=O)/C=C/c1ccccc1)NCCc1ccc(F)cc1	5	/	-2	-1	1.4%	-0.6	/
CC[C@@]1(C(=O)OC)N[C@H](CN(C)C(=O)Nc2ccc(OC)cc2)[C@@H]2C(=O)N(C)C(=O)[C@@H]21	6	/	3	/	-0.2%	-2.6	/
Cc1ccc(S(=O)(=O)CNC(=S)c2ccc3ccccc3c2)cc1	-1	56µM*	9	-10	4.1%	-5.9	-6
Cc1cccc(NC(=S)N(CCN(C)C)Cc2cc3cc(C)cc(C)c3[nH]c2=O)c1	-6	2%	-6	-23	1.9%	-2.6	0
CN(CC1CCCN(CCc2ccc(Cl)cc2)C1)C(=O)c1ccco1 (stereo not given)	-1	/	2	-31	1.4%	-4.8	/
CCOc1ccc(-n2c(SCc3ccc([N+](=O)[O-])cc3)nnc2-c2ccccc2)cc1	-28	0%	-21	-19	0.5%	-4.5	-4
CN(C1CCCCC1)S(=O)(=O)c1ccc2c(c1)c(=O)c(C(=O)NCCN1CCCC1)cn2C	-4	3%	-3	-7	0.5%	-6.4	-4
Cc1c(C(=O)N2CCc3ccccc3C2)oc2ccccc12	1	-13%	3	-13	0.7%	-0.2	-21
CC(=O)c1cc2c(cc1N(C(=O)c1ccco1)C(C(=O)NC1CCCC1)c1ccccc1F)OCO2 (stereo not given)	-3	14%	3	-7	1.3%	1.7	0
CC(=O)N1N=C(c2ccco2)CC1c1ccco1 (stereo not given)	0	4%	2	0	0.8%	1.5	-21
O=C(Nc1cccnc1)c1ccc([N+](=O)[O-])o1	1	13%	-1	3	0.4%	5.8	-2
COc1ccc(C(=O)N2CCC3(CC2)NCCc2[nH]cnc23)cc1OC	-5	12%	/	-10	-0.1%	0.3	-1
O=C(c1cccs1)n1nc(-c2cccnc2)nc1NCc1ccco1	-2	-1%	7	0	13%	-1.4	-1
CCN(CC)S(=O)(=O)c1cccc(-c2nnc(SC(C)C#N)n2Cc2ccccc2)c1 (stereo not given)	0	5%	13	-13	1.2%[38.3 µM]	-1.3	-4
CC1(C)Oc2ccc(C(=O)N3CCc4ccccc43)cc2N(CC(=O)N2CCCC2)C1=O	9	7%	1	3	0.5%	-4.0	0
Cc1nc2ccc(NC3=NCCCCC3)cc2s1	7	?	5	0	-1.8%	-0.5	-3
Cc1noc2ncnc(N3CCCCC3)c12	3	7%	-2	-6	-1.3%	-4.9	0
O=C(CCn1c(=O)oc2ccccc21)Nc1ccc2c(c1)OCCO2	-2	9%	-5	-3	1.8%	-0.4	-4
Cc1c(NC(=S)NC(NC(=O)CC(C)C)C(Cl)(Cl)Cl)c(=O)n(-c2ccccc2)n1C (stereo not given)	4	10%	-1	0	-0.6%	2.2	-18
Cc1ccc(C2C(=O)N(C3CCC(C)CC3)CC(=O)N2C2CC2)cc1 (stereo not given)	4	11%	6	-3	-0.3%	-0.9	-1
O=C(CSc1nnnn1-c1ccc2c(c1)OCCO2)N1CCN(C(=O)c2ccco2)CC1	3	-7%	-7	-2	0.1%	-2.4	-11
CN(CC(=O)O)S(=O)(=O)c1ccc(F)cc1	31	21%	52	-3	-0.7%[38.3 µM]	0.3	4
C[C@@H]1CN([C@H](C)CO)C(=O)CCCn2cc(nn2)CO[C@H]1CN(C)S(=O)(=O)c1ccc2ccccc2c1	6	/	-3	-2	0.1%	-12	/
Cc1ccc(N(Cc2cc3ccccc3[nH]c2=O)S(C)(=O)=O)cc1	-2	-5%	2	-11	-0.5%	1.1	3
Cn1c2[n+](c3ccc(Cl)cc3c1=O)Cc1ccccc1-2	-1	-16%	5	-7	0.3%	-10	-6
O=C(/C=C/c1ccc([N+](=O)[O-])cc1)NCCc1ccccc1	1	-4%	/	0	2.0%	3.6	-18
COC(=O)C1CCN(C(=O)COC(=O)CC(NC(C)=O)c2ccccc2)CC1 (stereo not given)	-9	15%	6	-10	-0.4%	-2.4	-10
CC(C)CN(C(=O)CN1CCN(c2cccc(Cl)c2)CC1)c1c(N)n(CC(C)C)c(=O)[nH]c1=O	9	7%	-8	-3	1.3%	-4.5	7
CCOC(=O)C1CCN(S(=O)(=O)c2ccc(Cl)cc2)CC1	10	1%	-5	2	0.9%	-4.8	0
Cc1ccc(S(=O)(=O)c2nnn3c2nc(N2CCOCC2)c2ccccc23)cc1C	0	?	-4	-4	0.1%	-3.7	-20
COc1ccc(C(=O)NNC(=O)c2ccc(F)c(S(=O)(=O)N3CCOCC3)c2)cc1	0	/	4	-28	-1.1%	-1.5	/
O=C(COc1ccccc1)Nc1nnc(-c2ccccc2)o1	?	20%	?	-9	0.1%	-4.2	?
CCC(C)c1ccccc1NC(=O)Cc1coc2cc3c(cc12)CCC3 (stereo not given)	-2	15%	13	-6	?	-0.3	-14
CCOC(=O)CSc1ccccn1	1	8%	/	-3	1.9%	-1.6	7
Cc1ccccc1CNC(=O)C1CCC(=O)N(CC2CCCCC2)C1 (stereo not given)	5	9%	4	23	-0.8%	-3.3	-13
O=C(CN1C(=O)c2ccccc2C1=O)N1CCN(c2ccccc2)CC1	-8	27%	-2	-9	1.3%	-1.7	27
C(=N\n1cnnc1)/c1ccc(N2CCOCC2)s1	-2	3%	6	-7	-0.8%	-0.4	-4
CC1Cc2ccccc2N1C1=CC(=O)CCC1 (stereo not given)	6	7%	-5	3	-0.3%	-0.9	6
Cc1ccc([C@H]2C[C@@H](n3cc(COC(=O)c4ccccc4)nn3)[C@H](O)CN2C(=O)c2cccs2)cc1	-1	/	-17	-5	-0.9%	-2.3	/
CN1C(=O)Cc2cc(S(=O)(=O)NCCc3ccc(Cl)cc3)ccc21	1	3%	-6	-7	0.7%&2.4%	-3.6	-3

Three compounds already listed, sorted by the number in CtBP-E1A inh, highest first:
smiles | Six1-Eya2 inh | Sfp PPTase inh | CtBP-E1A inh | D2 PAM | PINK1 expr mod | D2 agonist
C(=N\n1cnnc1)/c1ccc(N2CCOCC2)s1 | -2 | 3% | 6 | -7 | -0.8% | -0.4
COc1ccc(C(=O)NNC(=O)c2ccc(F)c(S(=O)(=O)N3CCOCC3)c2)cc1 | 0 | / | 4 | -28 | -1.1% | -1.5
CCOC(=O)C1CCN(S(=O)(=O)c2ccc(Cl)cc2)CC1 | 10 | 1% | -5 | 2 | 0.9% | -4.8

Bioassay records as filed in PubChem.
